# RE007 growth inh: less growth of the S. pombe RE007 Vpr strain. actives 0.21% (n = 360,000). Potency, µM (top dose mostly 92.2 µM), for inactives: at the highest dose activity change, negative = less growth. AID 651644. S. pombe RE007 Vpr strain, BacTiter-Glo ATP luminescence, 24 h; control for the full effect not named in the record; active = well fitted falling curve with a large enough effect; inconclusive = small, poorly fitted or top-dose-only effect; inactive = no such curve, though single readings can be large or run the other way;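 also: % is scaled to controls: 0 for no effect and ±100 for the full control effect; nearly all actives have a fitted effect of over 50% in size; the assay follows cell death caused by Vpr and the record does not say whether a fall means rescue or toxicity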
#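 Fission yeast strain RE007, carrying one chromosomally integrated HIV-1 vpr copy, was seeded at OD 0.01 in PMG+AL medium with 23 nL pinned compound. After 24 h at 30 °C and 99% humidity, viability was read by BacTiter-Glo luminescence.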
# 2A StopGo: FMDV 2A StopGo reporter, luciferase signal; human cells with a luciferase reporter of 2A StopGo recoding; control for the full effect not named in the record; AID 1159524; Potency, µM (doses to about 57.9 µM), for inactives: at the top dose signal change, negative = less light; actives 1.2% (n = 410,000); active = well fitted falling curve with a large enough effect; inconclusive = small, poorly fitted or top-dose-only effect; inactive = no such curve, though single readings can be large or run the other way; tested in HEK293T cells; also: % is scaled to controls: 0 for no effect and ±100 for the full control effect; nearly all actives have a fitted effect of over 45% in size; luciferase light after 4 h
# SARS PLP yeast: blocks SARS-CoV papain-like protease in a yeast assay. Potency, µM (doses to about 32.9 µM), for the others: top-dose activity, positive = growth rescue. actives 0.19% (n = 330,000). AID 485353. S. cerevisiae expressing SARS-CoV PLpro, growth rescue; control for the full effect not named in the record; active means well fitted rising curve with a large enough effect; inconclusive means small, poorly fitted or top-dose-only effect; inactive means no such curve, though single readings can be large or run the other way; also: 0% is about no effect; nearly all actives have a fitted effect of over 55% in size; growth read by luminescence after 48 h
# Marburg entry inh: blocks Marburg virus binding to or entry into cells. Marburg virus pseudotyped entry inhibition, cell reporter; control for the full effect not named in the record; about a third of the inactives were read at about 46 µM. Potency, µM (titrated, usually from 37.8 µM), for the others: top-dose activity change, negative = inhibition, usual class: inhibitors. actives 1.8% (n = 300,000). AID 540276; active = well fitted inhibition curve with a large enough effect; inconclusive = small, poorly fitted or top-dose-only effect, or effect the other way; inactive = flat fitted curve, though single readings scatter; tested in HEK293 cells; about a fifth of its hits are not listed in these tables; also: % is scaled to controls: 0 for no effect and ±100 for the full control effect; luciferase read-out
# Cruzain Triton: blocks cruzain activity in presence of Triton detergent | P25779 | purified cruzain, Z-FR-AMC fluorescence, 0.01% Triton | Potency, µM, without a hit: max response, negative = inhibition, actives largely listed as inhibitors | actives 0.43% (n = 200,000) | AID 1478;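 also: plate controls were neutral wells for no effect and buffer without enzyme for full effect; nearly all actives have a fitted effect of over 40% in size; top concentration of the series not given in the record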
# Target sequence (P25779 123-467 limits assumed): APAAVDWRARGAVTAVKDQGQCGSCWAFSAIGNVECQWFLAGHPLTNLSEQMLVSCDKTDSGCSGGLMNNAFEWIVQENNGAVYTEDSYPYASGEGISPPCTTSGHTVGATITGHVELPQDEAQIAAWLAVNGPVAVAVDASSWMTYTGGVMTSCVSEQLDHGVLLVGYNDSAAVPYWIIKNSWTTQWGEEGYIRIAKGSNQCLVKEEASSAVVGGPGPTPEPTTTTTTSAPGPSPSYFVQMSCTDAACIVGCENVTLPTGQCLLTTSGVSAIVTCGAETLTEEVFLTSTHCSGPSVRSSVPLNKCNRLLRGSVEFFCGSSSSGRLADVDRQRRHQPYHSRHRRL
#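 15 min RT preincubation of 1.5 nM cruzain with compound, then 2 uM Z-FR-AMC added; kinetic AMC fluorescence, 60 s delta. Triton X-100 0.01%, pH 5.5.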
# NS1 inh: influenza NS1 inhibition | Potency, µM (top dose mostly 46.1 µM), inactives show at the top dose activity, positive = more growth | AID 2326 | actives 0.4% (n = 270,000) | S. cerevisiae slowed by influenza A NS1, growth recovery by OD600; active means well fitted rising curve with a large enough effect; inconclusive means small, poorly fitted or top-dose-only effect; inactive means no such curve, though single readings can be large or run the other way; also: nearly all actives have a fitted effect of over 50% in size
#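 A cell-based growth assay was used: compounds that relieve NS1-induced slow growth of budding yeast raise OD600. Assay medium was yeast nitrogen base with ammonium sulphate and -URA supplement, pH 6.0, with 2% galactose.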
# Cruzain noTriton: cruzain (T. cruzi) inhibition without detergent; P25779; actives 2.3% (n = 200,000); purified cruzain, Z-FR-AMC fluorescence, no detergent; Potency, µM, inactives show max response, negative = inhibition, actives largely listed as inhibitors;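 also: plate controls were enzyme without inhibitor for no effect and buffer without enzyme for full effect; nearly all actives have a fitted effect of over 40% in size; top concentration of the series not given in the record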
#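 Purified cruzain at 1.5 nM, pre-incubated 15 min with compound at room temperature in 100 mM sodium acetate pH 5.5, 5 mM DTT, 0.00005% Triton X-100. Reaction started with 2 uM Z-FR-AMC; AMC fluorescence increase over 60 s gives rate.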
# LASV entry inh: inhibitors of Lassa virus binding or cell entry. Lassa virus pseudotype entry inhibition, cell reporter; control for the full effect not named in the record. Potency, µM (titrated, usually from 37.9 µM), inactives show at the top dose activity change, negative = inhibition, actives largely listed as inhibitors. actives 1.2% (n = 300,000); active means well fitted inhibition curve with a large enough effect; inconclusive means small, poorly fitted or top-dose-only effect, or effect the other way; inactive means flat fitted curve, though single readings scatter; tested in HEK293 cells; also: % is scaled to controls: 0 for no effect and ±100 for the full control effect; nearly all actives have a fitted effect of over 50% in size; luciferase read-out
# The depositor's hits bear a star; u = inconclusive; x = no result given; & = joins results of further samples; [ ] = remark or other dose. Unless noted, calls follow the shape of the dose curve; as a rule, active = well fitted curve in the direction sought with a large enough effect; inconclusive = small, poorly fitted or top-dose-only effect, or another doubt; inactive = no such curve, though single readings can be large; an effect the other way counts as inactive or inconclusive. Potency is read from the fitted curve at half-maximal effect.
SMILES,RE007 growth inh,2A StopGo,SARS PLP yeast,Marburg entry inh,Cruzain Triton,NS1 inh,Cruzain noTriton,LASV entry inh
Cn1nccc1C(=O)Nn1cnnc1,14%,-13%,-3%,7%,3.2%,-7%,4%,17%
COc1ccc(C(=O)Nn2cnnc2)c(OC)c1,-5%,-16%,8%,2%,5.9%,3%,-7%,-1%
C=CCn1c(O)c(/C(C)=N/N2CCN(C)CC2)c(=O)[nH]c1=O,0%,17%,-1%,5%[46.1 µM],x,0%,x,-2%
COc1ccc(C2=NOC(C(=O)NC(C)(C)C)C2)cc1 (stereo not given),-7%,-3%,-11%,-2%,3.1%,2%,1%,17%
COc1ccc(CN2CCN(CC(O)Cn3c4ccccc4c4ccccc43)CC2)cc1 (stereo not given),-7%,u,-27%,-1%,-0.4%,-21%,10%,-2%
Cc1ccccc1C(=O)NC1CC2CCCC(C1)N2Cc1ccc(Cl)cc1 (stereo not given),12%,-20%,8%,x,x,3%,x,x
CCn1c(COc2ccc(C)cc2)nnc1SCC(=O)Nc1cc(OC)ccc1OC,40%,-29%,-8%,u,-3.0%,-38%,u,-2%
O=C(/C=C\Nc1ccccn1)c1ccccc1,0%,-81%,-21%,u,-4.8%,-172%,-13%,2.5µM*
CCN(CC(=O)Nc1ccc(NC(C)=O)cc1)C(=O)c1cc(S(=O)(=O)N2CCCCCC2)ccc1OC,-25%,5%,1%,-4%[46.1 µM],x,x,x,5%
CN(C)/C=C(/C(=O)c1ccc(F)cc1)S(=O)(=O)c1ccc(F)cc1,6%,21%,1%,u,x,-2%,x,20%[46.1 µM]
O=C(Nc1ccc([N+](=O)[O-])cc1)c1cc(-c2ccccn2)nc2c(Cl)cccc12,-6%,-29%,-1%,-26%,x,3%,x,-21%
CCCCNC(=S)N(C)/N=C/c1ccc(OCc2ccc(C(=O)OC)cc2)c(OC)c1,20%,u,0%,u,-8.1%,-4%,-4%,u
Cc1cc(NC(=O)Nc2ccc(Cl)cc2)n(C(C)(C)C)n1,18%,-3%,0%,x,x,-1%,x,x
CC(C)Oc1ccccc1OCCN(C)C,3%,-10%,-18%,39%,1.3%,-2%,-9%,-8%
O=C(NN1CCCCCC1)c1ccccc1F,-18%,11%,x,16%[46.1 µM],x,x,x,-1%[46.1 µM]
COc1ccccc1C(CNC(=O)CNC(=O)c1cccc(Cl)c1)N1CCCC1 (stereo not given),2%,-13%,x,7.1µM*,x,x,x,3%
Cc1[nH]c2ccccc2c1C(=O)CN1CCC2(CC1)OCCO2,11%,-24%,3%,27%,0.2%,-6%,3%,0%
CC(=O)c1cc(C)ccc1OC(=O)CCN1C(=O)C2C3c4ccccc4C(c4ccccc43)C2C1=O (stereo not given),-11%,-9%,3%,-27%,1.3%,5%,5%,12%
C=CCn1c(SCC(=O)NCC(=O)OCC)nnc1-c1cccc(OC)c1,9%,-6%,2%,u,-4.0%,5%,5%,7%
O=C(CC1SC(N2CCCCC2)=NC1=O)Nc1cccc(C(=O)NCc2ccccc2)c1 (stereo not given),2%,-11%,-6%,-24%,x,x,x,-14%
O=C(Nc1cccc2ccccc12)c1cn(-c2ccccc2)nc1-c1cccs1,8%,3%,4%,-6%,-0.8%,23%,u,17%
Cc1noc(C(=O)NCc2cccnc2)c1Cl,-5%,-14%,24%,x,-2.9%,-5%,10%,x
COC(=O)c1ccc2c(c1)NC(=O)c1ccccc1S2,3%,-19%,1%,x,x,11%,x,x
O=C1CN(C(=O)c2cnccn2)c2ccccc2N1,13%,12%,-3%,14%[46.1 µM],1.0%,0%,3%,-13%
O=C(COC(=O)Cc1ccc(F)cc1)NC1CCCC1,-2%,-14%,2%,-22%,x,x,x,1%
c1ccc2c(c1)ncn2CCCCOc1ccc2c(c1)CCC2,u,-25%,-10%,-19%,-12%,-170%,u,8%
O=c1cc[nH]c2cc(C(F)(F)F)ccc12,12%,x,-4%,-3%,-3.5%,-7%,5%,7%
CCOC(=O)CC(C#N)c1c[nH]c2ccccc12 (stereo not given),-6%,4%,-2%,20%,1.5%,-4%,8%,4%
CC(C)Cn1c(=O)c2sccc2n2c(CCCC(=O)NCC(C)c3ccccc3)nnc12 (stereo not given),x,-17%,x,x,0.2%,x,-1%,u
CN1CCN(c2nc3c(S(=O)(=O)c4ccc(Cl)cc4)nnn3c3ccsc23)CC1,x,26%,x,x,0.0%,x,11%,7%[46.1 µM]
CC/C(=N\Nc1nncc2ccccc12)c1ccc(F)cc1,1%,28%,-7%,u,x,1%,x,u
NC(=Nc1ccc(N)cc1)C(N)=Nc1ccc(N)cc1,0%,-21%,0%,u,x,9%,x,26%[46.1 µM]
Cc1cc(/C=C2/C(=O)N(C)C(=S)N2C)c(C)n1C1CC1,1%,72%[activator],-5%,-19%,-8.8%,23%,-21%,1%
CN1CCCN(C(=O)c2cccc(Br)c2)CC1,-5%,5%,2%,-2%,x,22%,x,26%
COCCNc1cc(C)nc2cc(-c3ccc(C)cc3)nn12,u,48%[activator],-7%,-14%[46.1 µM],x,2%,x,x
Cc1cccc(Nc2nnc(C)c(=O)n2N)c1,0%,24%,6%,11%,1.2%,18%,0%,u
Cc1nc2cccnc2n1-c1cccc(C(=O)NCc2cccc(Cl)c2)c1,x,u,x,x,-14%,x,-3%,2%[46.1 µM]
CC/C(=N\NC(=O)Nc1ccccc1)c1ccccc1,9%,6%,19%,3%,-1.3%,5%,-8%,-26%
COCC(C)NS(=O)(=O)c1ccc(NC(=O)c2ccccn2)cc1 (stereo not given),-13%,12%,-2%,x,x,-7%,x,x
O=C(CN1C(=O)c2ccccc2S1(=O)=O)NCCc1ccccc1,-4%,49%[activator],3%,5%[46.1 µM],x,5%,x,-25%
OCC(O)CSc1nc(-c2ccccc2)nc2c1CCC2 (stereo not given),5%,-14%,-6%,0%[46.1 µM],-1.6%,2%,9%,-2%
O=C(CN(Cc1ccccc1)C(=O)CCC(=O)Nc1nccs1)NCC1CCCO1 (stereo not given),29%,2%,-1%,-5%,x,-1%,x,u
O=C(CSc1nnc(-c2ccccn2)n1Cc1ccccc1)NC1CCCC1,-9%,1%,4%,2%[46.1 µM],-8.7%,-3%,7%,-11%
Cc1nn(CC(=O)NCCN2CCOCC2)c(=O)c2ccccc12,7%,-16%,4%,2%&2%[46.1 µM],4.1%,7%,-7%,-6%
O=S(=O)(Nc1nccs1)c1ccc(NS(=O)(=O)c2cccs2)cc1,3%,0%,4%,5%,1.1%,4%,-7%,-14%
COc1cccc(NC(=O)CS(=O)(=O)Cc2nc(-c3ccc(C)cc3)oc2C)c1,-18%,-16%,14%,-23%[46.1 µM],x,12%,x,4%[46.1 µM]
COc1cccc(-c2nnc(SCC(=O)N3CCc4ccccc43)o2)c1,x,6%,x,7%[46.1 µM],-1.6%,x,u,-3%[46.1 µM]
CCN(CC)C(=O)CSc1nnc(CCNC(=O)OC(C)(C)C)o1,-4%,13%,5%,-2%,7.9%,2%,22%,-2%
NS(=O)(=O)c1cccc(NC(=O)CCCC2CCCCC2)c1,6%,30%[activator],3%,u,x,8%,x,19%[46.1 µM]
COc1cc(S(=O)(=O)N2CCOCC2)ccc1NC(=O)COc1ccc(N(C)S(=O)(=O)c2ccc(C)cc2)cc1,-8%,-8%,1%,u,x,x,x,-10%[46.1 µM]
Cc1cc(NS(=O)(=O)c2ccc(NC(=O)COc3ccc(Br)cc3)cc2)nc(C)n1,3%,-3%,1%,x,x,5%,x,x
Cc1ccc(C(=O)CSc2nnc(-c3snnc3C)n2C2CC2)cc1,2%,-6%,1%,-4%[46.1 µM],x,12%,x,18%
CC1CN(C(=O)/C(C#N)=C2\N=C(NC(=O)c3ccc(F)cc3)c3ccccc32)CC(C)O1 (stereo not given),3%,-17%,-1%,x,x,7%,x,x
Cn1c(=O)oc2cc(S(=O)(=O)N3CCC(C(=O)N4CCN(c5ccccc5)CC4)CC3)ccc21,19%,u,-4%,1%,-1.2%,-32%,u,2%
Cc1ccc(CNC(=O)C2(NC(=O)Nc3ccc(C)cc3)CCCCC2)cc1,2%,x,5%,-22%,3.9%,13%,-4%,u
Cc1ccc([N+](=O)[O-])cc1NC(=O)C1CCN(S(C)(=O)=O)CC1,-6%,-24%,u,3%,-4.0%,12%,1%,15%
O=C(O)C1=C[C@H](c2ccccc2)C[C@H](OCc2ccc(CO)cc2)O1,-5%,-15%,-1%,x,x,1%,x,x
O=C(NC1CCCCC1)C(c1ccccc1)N(C(=O)c1csnn1)C1CCCC1 (stereo not given),2%,-1%,10%,-15%[46.1 µM],x,2%,x,-23%
NC(=O)C1CCN(C(=O)c2ccc(Oc3ccccc3)cc2)CC1,1%,17%,-12%,-6%,-2.0%,-6%,0%,-8%

# Fetched by structure from the list above, 6 records:
SMILES,RE007 growth inh,2A StopGo,SARS PLP yeast,Marburg entry inh,Cruzain Triton,NS1 inh,Cruzain noTriton,LASV entry inh
Cc1cc(NS(=O)(=O)c2ccc(NC(=O)COc3ccc(Br)cc3)cc2)nc(C)n1,3%,-3%,1%,x,x,5%,x,x
COc1cccc(-c2nnc(SCC(=O)N3CCc4ccccc43)o2)c1,x,6%,x,7%[46.1 µM],-1.6%,x,u,-3%[46.1 µM]
COc1ccc(C2=NOC(C(=O)NC(C)(C)C)C2)cc1 (stereo not given),-7%,-3%,-11%,-2%,3.1%,2%,1%,17%
O=C(/C=C\Nc1ccccn1)c1ccccc1,0%,-81%,-21%,u,-4.8%,-172%,-13%,2.5µM*
Cc1noc(C(=O)NCc2cccnc2)c1Cl,-5%,-14%,24%,x,-2.9%,-5%,10%,x
COc1cccc(NC(=O)CS(=O)(=O)Cc2nc(-c3ccc(C)cc3)oc2C)c1,-18%,-16%,14%,-23%[46.1 µM],x,12%,x,4%[46.1 µM]
